# Screens as filed in PubChem BioAssay.
# Ecoli rRNA inh: reduced GFP signal of wild-type E. coli, primary screen, bacterial rRNA inhibitor project, GFP/RFP fluorescence, OD600, single point; E. coli WT GFP vs humanized-ribosome RFP mutants, 24 h; hits give low values; DMSO median 0, no signal -100; GFP signal change (wild-type ribosome), % (concentration not given with the values); 350,000 compounds, 1.6% hits;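 active = significant combined selectivity score with lowered wild-type GFP, culture density cut under 30%, mutant RFP and density less affected; inactive = any of these conditions unmet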; note: one replicate is shown; some compounds called inactive have numbers as strong as hits
# HNF4A DNA FP: change in binding of human HNF4A to DNA, primary screen, biochemical, fluorescence polarization, FITC-DNA | 1 h | 360,000 compounds, 0.3% hits | activity change, % at 10 µM | AID 1224865, 2016 | Hepatocyte nuclear factor 4-alpha (Homo sapiens), P41235; in the data active = activity change above about 30%, passing the limit was not always enough;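 note: controls were the assay level and a saturating level of protein; the project sought stronger binding though the title names inhibitors; some compounds called inactive have numbers as strong as hits; positive values seem to mean higher polarization but the record does not say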
# Target sequence (P41235 whole entry, looked up): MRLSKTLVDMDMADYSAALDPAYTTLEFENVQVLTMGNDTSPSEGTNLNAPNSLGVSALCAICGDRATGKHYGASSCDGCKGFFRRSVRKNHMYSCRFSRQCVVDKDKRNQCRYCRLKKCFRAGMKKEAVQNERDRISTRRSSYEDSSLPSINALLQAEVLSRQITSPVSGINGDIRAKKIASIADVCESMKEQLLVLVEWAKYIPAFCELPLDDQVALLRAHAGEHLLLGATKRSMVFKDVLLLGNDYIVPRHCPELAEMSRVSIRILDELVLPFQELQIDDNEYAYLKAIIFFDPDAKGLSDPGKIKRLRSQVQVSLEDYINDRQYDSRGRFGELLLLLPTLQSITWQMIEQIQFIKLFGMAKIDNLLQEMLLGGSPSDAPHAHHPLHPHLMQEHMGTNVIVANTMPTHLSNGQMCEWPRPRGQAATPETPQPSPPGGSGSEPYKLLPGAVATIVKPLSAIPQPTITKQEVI
# Ecoli growth: E. coli growth inhibition, primary screen, OD600; Escherichia coli growth, 23 h; hits give low values; OD600 absorbance (test concentration not listed); 330,000 compounds, 0.21% hits; AID 1053175, 2014;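 active = OD600 absorbance below the run mean of sample wells minus 3.6 SD, in any replicate, cut at about 0.56 in these data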;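 note: stock transfer was 300 nL into about 60 µL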
# UCH37 DUB inh: inhibitors of human UCH37 deubiquitinase, primary screen, biochemical, Ub-AMC cleavage, fluorescence. Ubiquitin carboxyl-terminal hydrolase isozyme L5 (Homo sapiens), Q9Y5K5. purified proteasome/UCH37. inhibition, % (no concentration beside the values). 330,000 compounds, 0.33% hits;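 active = mean of two replicates above 20%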;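 note: 0% = compound-free wells with enzyme and 100% = wells lacking proteasome; stock transfer was 100 nL into about 20 µL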
# Target sequence (Q9Y5K5 whole entry, looked up): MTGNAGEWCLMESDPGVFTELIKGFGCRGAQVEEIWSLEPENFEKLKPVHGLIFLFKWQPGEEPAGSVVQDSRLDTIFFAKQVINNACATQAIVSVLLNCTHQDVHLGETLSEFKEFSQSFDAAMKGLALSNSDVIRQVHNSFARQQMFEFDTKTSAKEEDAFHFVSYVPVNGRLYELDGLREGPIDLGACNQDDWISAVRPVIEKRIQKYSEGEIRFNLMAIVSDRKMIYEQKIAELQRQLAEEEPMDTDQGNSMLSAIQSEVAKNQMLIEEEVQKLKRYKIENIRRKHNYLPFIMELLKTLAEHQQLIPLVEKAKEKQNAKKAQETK
#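 Material: human UCH37 enzyme supplied as purified proteasome complex / Amount: 0.15 nM proteasome as dispensed / Buffer or medium: pH 7.4 Tris-HCl (50 mM) with ovalbumin, ATP-MgCl2, DTT / Times: preincubation 30 min, reaction 25 min, room temperature / Technique: AMC fluorescence from Ub-AMC cleavage, excitation 355 nm, emission 460 nm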
# FGF22 binding: binders of human FGF22 protein, primary screen, FGF22 synaptogenesis inhibitor project, biophysical, thermal shift, single point. Fibroblast growth factor 22 (Homo sapiens), Q9HCT0. recombinant FGF22 thermal shift, SYPRO orange fluorescence; percent of sucrose octasulfate shift, DMSO zero. calls only at 9.99 µM. 340,000 compounds, 1.5% hits;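 active = melting point raised past a set limit in the mean and every replicate; three in four hits are not shown here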
# Beta2AR agonist: beta2AR agonists driving receptor internalization, primary screen, cell-based, FAP fluorogen, flow cytometry; Beta-2 adrenergic receptor (Homo sapiens), P07550; Am2.2-beta2AR cells; reference of the scale not given here; response, % (concentration not given with the values); 340,000 compounds, 0.43% hits;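 active = response above a set limit, near 3 SD of response in nonfluorescent compounds, cut at about 42% in these data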;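 note: stock transfer was 100 nL into about 11 µL; a reference agonist was the positive control; negative values mostly stem from fluorescent compounds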
# ALR H2O2 inh: inhibitors of human ALR sulfhydryl oxidase, primary screen, biochemical, H2O2 detection, HRP-luminol luminescence, single point | FAD-linked sulfhydryl oxidase ALR (Homo sapiens), P55789 | 290,000 compounds, 3.8% hits | purified ALR, DTT oxidation | inhibition, % (no concentration beside the values);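 active = mean and each replicate at 75% or more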;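 note: stock transfer was 7.5 nL into about 7.5 µL; 0% = neutral wells and 100% = wells with inactivated enzyme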
# Target sequence (P55789 whole entry, looked up): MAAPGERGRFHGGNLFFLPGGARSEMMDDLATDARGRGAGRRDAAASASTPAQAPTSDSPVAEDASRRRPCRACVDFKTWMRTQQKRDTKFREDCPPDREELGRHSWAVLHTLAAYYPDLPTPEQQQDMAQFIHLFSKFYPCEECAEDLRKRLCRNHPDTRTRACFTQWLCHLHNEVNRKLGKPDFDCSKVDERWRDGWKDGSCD
# Ecoli rRNA inh OD600: further read-out of Ecoli rRNA inh, marked with its call; OD600 change, %; measured here: OD600 growth;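 optical density of the mix in the first replicate; 0 = DMSO median and -100 = no signal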
# Ecoli rRNA inh RFP: also measured in Ecoli rRNA inh; calls as there; RFP signal change, %; measured here: RFP humanized mutant strains;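 first replicate; 0 = DMSO median and -100 = no signal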
# An asterisk follows results filed as active; i = inactive; · = no result given; & = joins results of further samples.
SMILES,Ecoli rRNA inh,Ecoli rRNA inh OD600,Ecoli rRNA inh RFP,HNF4A DNA FP,Ecoli growth,UCH37 DUB inh,FGF22 binding,Beta2AR agonist,ALR H2O2 inh
Cn1c(CNS(=O)(=O)c2cccc(Cl)c2)cc(=O)n(C)c1=O,3,-7,-3.2,3.0,0.65,0.0,i,0,-3
O=C(OCC(=O)N1CCCCCC1)c1cccnc1Cl,10,8,-2.6,1.2,0.68,0.2,i,0,9
Cc1cc(C(=O)COc2cc(F)ccc2[N+](=O)[O-])c(C)n1CC1CCCO1 (configuration not stated),-7,-10,6.1,3.3,0.67,4.7,i,14,-6
COc1cc(NC(=O)CN2C(=O)C(C)N(c3ccc(C)cc3)C2=O)cc(OC)c1 (configuration not stated),5,-7,-2.8,-2.1,0.66,1.2,i,2,-12
O=C(NN=Cc1c[nH]c2ccccc12)NN=Cc1c[nH]c2ccccc12,-12,1,6.2,1.9,·,·,i,·,·
CCN1C(=O)N/C(=C/c2ccc(Sc3ccc(C)cc3)o2)C1=O,·,·,·,1.6,·,-14,·,-5,2
O=S(=O)(c1ccc(Br)cc1)N1CCCC1,6,5,-1.7,-3.6,0.66,2.5,i,-2,0
c1ccc(C2=Nn3c(nnc3-c3ccncc3)SC2)cc1,·,·,·,-0.7,·,·,·,-6,0
CCCCn1nc(C(=O)N(C)CC(=O)Nc2ccc(F)c(F)c2F)ccc1=O,7,-4,1.8,4.5,0.71,1.2,i,-4,15
CCOC(=O)N1CCC(NC(=O)c2oc3c(F)cccc3c2C)CC1,1,-1,-1.3,-0.1,0.71,-0.4,i,-3,-8
Cc1nn2c(N3CCOCC3)cc(C(C)(C)C)nc2c1-c1ccc(Cl)cc1,16,10,5.1,2.2,0.66,i,i,0,·
O=C(CN1C(=O)C(c2ccc(F)cc2)=NC12CCCC2)Nc1ccc(F)cc1,4,-8,-6.2,-1.4,0.79,5.1,i,14,-8
CCn1cc(C(=O)NCc2cccs2)c(=O)c2cc(S(=O)(=O)N3CCOCC3)ccc21,3,-5,-10,·,0.71,2.1,i,·,-5
O=C(c1ccco1)N1CCN(C(=O)c2ccc(CS(=O)c3cccc(Cl)c3)o2)CC1 (configuration not stated),-15,-18,-3.9,-1.0,0.69,-0.2,i,-11,-2
Cc1ccc(NCCC(=O)c2cccc([N+](=O)[O-])c2)cc1,·,·,·,2.2,0.72,3.7,·,12,48
COc1ccc(CNC(=O)C(C)c2ccc([N+](=O)[O-])cc2)cc1 (configuration not stated),5,5,-2.8,-1.1,0.72,4.5,i,16,-1
N#CC1(NC(=O)COC(=O)c2nccnc2N)CCCCC1,10,15,6.2,3.4,0.69,-499,i,-3,-3
O=C(CNC(=O)OCc1ccccc1)NC1CCCCCC1,2,-6,0.1,-5.0,0.65,2.9,i,8,-4
C=CCNC(=O)CN1CCC(O)(c2ccccc2)CC1,15,12,-5.1,1.8,0.64,4.6,i,5,-3
COc1ccc(CCNC(=O)C2CCCN(S(=O)(=O)N3CC(C)CC(C)C3)C2)cc1OC (configuration not stated),-4,-12,-2.2,-3.7,0.7,3.1,i,-12,-3
Cn1c(=O)c2c(ncn2CC(=O)N2CCc3ccccc3C2)n(C)c1=O,·,·,·,-1.2,0.69,0.8,·,-3,-4
CC(C)c1nc(N2CCOCC2)c(C#N)c2c1CCCC2,·,·,·,-1.4,0.68,-44,·,2,·
Cc1cccc(CNC(=O)CCn2ccc3cc(S(=O)(=O)N4CCCC4)ccc32)c1,-1,1,-0.2,-4.3,0.7,6.6,i,7,-6
C=CCNC(=O)COC(=O)COc1ccc(Cl)cc1C,6,10,-1.8,0.0,0.68,1.8,·,5,-4
COC(=O)/C=c1/s/c(=C(\C#N)C(=O)NCc2ccco2)n(-c2ccccc2)c1=O,·,·,·,2.0,·,·,·,0,7
O=C(NCCCn1ccnc1)c1cc2nc(-c3ccc(Br)cc3)cc(C(F)(F)F)n2n1,·,·,·,-2.3,0.71,-14,·,-9,-5
c1ccc2c(CNc3ccc(CNc4ncn[nH]4)cc3)cccc2c1,·,·,·,-2.8,0.72,-1.3,·,4,3
O=C(Nc1ccc2c(c1)OCO2)c1cnccn1,10,2,0.8,1.9,0.65,6.6,i,-6,-5
O=C1CC2(CCCCC2)Oc2ccccc21,14,18,0.6,-1.7,0.67,-11,i,-6,-11
CCN(CC(=O)Nc1ccc(N2CCOCC2)cc1)CC(=O)NC(C)(C)C,·,·,·,-7.1,0.72,3.7,·,-4,50
CC(=O)Nc1ccc(NC(=O)CSc2ccc(C)cc2)cc1,·,·,·,-1.5,0.68,1.2,·,-1,15
Cc1ccc2c(CNCc3ccco3)cc(=O)oc2c1,·,·,·,-1.0,0.68,4.6,·,-7,-4
COc1ccc(/C=C2\NC(=O)C(C=NCc3ccccc3)=C2O)cc1,·,·,·,0.5,·,·,·,1,-2
CN(C)CCNC(=O)C(=O)Nc1cc2c3c(c1)CCC(=O)N3CCC2,4,5,-1.7,3.1,0.71,3.7,i,-2,-9
CC(=O)N(Cc1ccc(Br)cc1)c1ccccc1C(=O)O,14,3,0.2,-0.5,0.69,-0.1,i,3,-3
CC(CN1CCC(n2nccc2NC(=O)C2CCCC2)CC1)c1ccccc1 (configuration not stated),1,7,-2.6,-6.0,0.72,4.9,i,-6,2
CCCCCOc1ccccc1C(=O)NCCCC(=O)O,·,·,·,-2.0,0.67,0.5,·,8,-2
COc1ccc(-n2nc(C(=O)NCC(=O)N3CCCCCC3)c3ccccc3c2=O)c(OC)c1,0,-12,12,-2.2,0.66,3.4,i,-6,-6
COc1ccc2c(C)c(C(=O)N3CCN(Cc4ccccc4)CC3)oc2c1,-35,-64,-4.2,1.4,0.67,4.1,i,5,-5
COc1ccc(NC(=O)N(C)C[C@@H]2OCc3cnnn3CCCC(=O)N([C@H](C)CO)C[C@@H]2C)cc1,5&2,7&1,-0.5&-1.8,-4.0,·,·,i,·,·
Cc1onc(-c2c(F)cccc2Cl)c1C(=O)NC1CC1,13,14,4.2,2.5,0.69,3.8,i,-6,-15
CCCCNC(=O)C(=O)Nc1ccc2c(c1)N(S(=O)(=O)c1cccs1)CCC2,2,12,5.4,0.4,·,·,i,·,·
COc1ccc(C(=O)/C=C(\C)Nc2ccc3c(c2)OCO3)cc1,·,·,·,1.5,0.71,4.4,·,3,17
CC(C)C[C@@H](COc1ccccc1)N1CCN(Cc2ccccc2)CCC1=O,-35,-67,-19,·,0.8,-16,i,6,-1
C/C=C/C(=O)Nc1cccc(C2=NOC3(C2)C[C@@H](C(N)=O)N(C(=O)C(c2ccccc2)c2ccccc2)C3)c1 (some centres not stated),-8,-18,-2.8,-0.7,·,2.2,i,-3,·

# 3 entries picked at random from those above:
SMILES,Ecoli rRNA inh,Ecoli rRNA inh OD600,Ecoli rRNA inh RFP,HNF4A DNA FP,Ecoli growth,UCH37 DUB inh,FGF22 binding,Beta2AR agonist,ALR H2O2 inh
CCCCNC(=O)C(=O)Nc1ccc2c(c1)N(S(=O)(=O)c1cccs1)CCC2,2,12,5.4,0.4,·,·,i,·,·
COc1ccc(NC(=O)N(C)C[C@@H]2OCc3cnnn3CCCC(=O)N([C@H](C)CO)C[C@@H]2C)cc1,5&2,7&1,-0.5&-1.8,-4.0,·,·,i,·,·
CCCCCOc1ccccc1C(=O)NCCCC(=O)O,·,·,·,-2.0,0.67,0.5,·,8,-2

# Continuation.
SMILES,Ecoli rRNA inh,Ecoli rRNA inh OD600,Ecoli rRNA inh RFP,HNF4A DNA FP,Ecoli growth,UCH37 DUB inh,FGF22 binding,Beta2AR agonist,ALR H2O2 inh
O=C(O)Cc1csc(NC(=O)c2ccco2)n1,·,·,·,-1.6,0.72,5.0,·,2,2
N#Cc1ccc(COC(=O)c2cnc3ccccc3n2)cc1,-6,-5,0.9,4.6,0.69,3.6,i,9,-17
CC1(C)c2[nH]c3ccccc3c2C[C@@H]2C(=O)N(c3ccc(F)cc3F)C(=O)N21,-25,-33,-5.1,-2.9,·,3.0,i,1,7
COc1ccc(Cl)cc1NC(=O)CSc1nnc(CNC(=O)c2cccs2)o1,0,-2,1.2,1.2,0.64,5.7,i,-5,-81
O=C1/C(=C/c2cccs2)NC(=S)N1C1CC1,8,8,-0.4,-2.2,0.68,4.7,i,-11,33
CCCNC(=O)c1ccc(COc2ccc(CCC)cc2OC)o1,-18,-12,-2.0,-0.8,0.68,-2.6,i,15,·
COc1ccc(NC(=O)CCCNC(=O)c2ccc(Cl)cc2)cc1OC,11,8,5.6,-3.1,0.63,1.1,i,-8,-57
O=Cc1cccc(OC(=O)Nc2ccccc2)c1,21,1,-0.1,-1.8,0.65,2.1,i,0,-4
CCCCCCCCCCCC(=O)NC(C(=O)O)C(O)c1ccccc1 (configuration not stated),10,-5,0.1,-1.3,0.67,6.5,i,1,14
CC(C)c1nnc(SCC(=O)N2CCc3ccccc32)n1N,6,2,-1.3,-1.6,0.64,5.8,i,-12,·
CCN(Cc1ccccc1)C(=O)CSc1n[nH]c(N)n1,7,5,-0.6,3.2,0.69,1.1,i,-2,1
O=C(CNCc1ccccc1Cl)Nc1ccc(C(=O)N2CCCCC2)cc1,-7,-10,5.5,2.9,·,·,i,-8,2
NC(=S)Nn1c(-c2ccccc2)nc2ccccc2c1=O,·,·,·,-1.0,0.71,0.4,·,7,7
COC(=O)c1ccc(OC)c(CSc2nnc(-c3ccc(C)cc3)o2)c1,10,8,-3.9,5.7,0.71,1.9,i,10,·
CN(C)c1ccc(-c2n[nH]c(=S)n2-c2ccccc2)cc1,-4,0,2.4,0.3,0.73,-5.5,i,1,95*
CCn1cc([N+](=O)[O-])c(C(=O)Nc2nc3ccc(OC)cc3s2)n1,-2,-6,-2.6,1.1,0.69,0.6,i,-4,3
NC(=O)c1cc(NC(=O)COC(=O)CCCN2C(=O)c3cccc4cccc(c34)C2=O)cc(C(N)=O)c1,-2,-6,-4.5,1.3,0.62,-15,i,-7,2
O=S(=O)(c1cccc(C(F)(F)F)c1)N1CCN(C(=S)NC2CC2)CC1,·,·,·,1.8,0.72,3.3,·,-10,-25
Cc1ccc(-n2[nH]c(C)c(C=NCc3ccncc3)c2=O)cc1,7,-7,-0.5,-2.8,0.68,10,i,-4,-4
S=C(NCc1ccco1)Nc1cc(-c2ccccc2)[nH]n1,-10,-6,4.7,-2.7,0.67,3.7,i,4,·
COCC(=O)n1nc(-c2ccccc2)nc1NCc1ccc(F)cc1,·,·,·,1.1,0.73,3.6,·,-2,12
O=C(Nc1ccccc1SCC1CSc2nc3ccccc3c(=O)n21)c1ccccc1Cl (configuration not stated),·,·,·,-1.4,0.78,3.2,·,7,-23
O=C(Nc1ccc(S(=O)(=O)N2CCCC2)cc1)c1cccnc1,·,·,·,-0.8,0.71,0.4,·,-5,·
O=C(c1cn(-c2ccccc2)nc1-c1ccccc1)n1nnc2ccccc21,·,·,·,1.0,0.78,0.9,·,1,-10
Cc1cc(C)n(C(=O)CNC(=O)c2ccco2)n1,-31,-41,-7.6,-3.7,0.69,2.6,·,-1,-2
COC(=O)c1ccccc1N=Nc1c(C)noc1C,-28*,-12*,-1.5*,-1.8,0.63,8.3,i,5,1

# The list is partial (hit frequency here may not be typical).
